gsp ag = gsp mutant agonism; AID 624287; Potency, µM (top dose mostly 76.9 µM), inactives show at the highest dose activation (cAMP increase), hits mostly activators; gsp mutant cells, cAMP HTRF, 30 min; control for the full effect not named in the record; hit rate 0.13% among 340,000; active = well fitted activation curve with a large enough effect; inconclusive = small, poorly fitted or top-dose-only effect, or another doubt; inactive = no such curve, though single readings can be large or run the other way; cell line not stated here;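 also: phosphodiesterase inhibitor Ro 20-1724 added with compounds to block cAMP breakdown; potency is read from the fitted curve at half-maximal effect; nearly all actives have a fitted effect of over 60% in size; about a fifth of the inactives were tested at one dose only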
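Cells stably selected in G418 were plated at 2000/well, grown 16-24 hr, then given compounds in DMSO with the PDE inhibitor […] (300 uM solution added) for 30 min at 37C; cAMP was read by HTRF.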
D2 agonist = activates the human D2 dopamine receptor | hit rate 0.084% among 360,000 | activation, % (test concentration not listed) | DiscoveRx PathHunter D2 beta-arrestin, luminescence, 90 min; 100% = 57 uM dopamine signal | P14416; in the data active = activation above about 40%; inconclusive = about 15% to 40%; inactive = below about 15%; also: compound concentration not given in the record; the text of the record calls up to 30% inactive
Target sequence (P14416 whole entry, looked up): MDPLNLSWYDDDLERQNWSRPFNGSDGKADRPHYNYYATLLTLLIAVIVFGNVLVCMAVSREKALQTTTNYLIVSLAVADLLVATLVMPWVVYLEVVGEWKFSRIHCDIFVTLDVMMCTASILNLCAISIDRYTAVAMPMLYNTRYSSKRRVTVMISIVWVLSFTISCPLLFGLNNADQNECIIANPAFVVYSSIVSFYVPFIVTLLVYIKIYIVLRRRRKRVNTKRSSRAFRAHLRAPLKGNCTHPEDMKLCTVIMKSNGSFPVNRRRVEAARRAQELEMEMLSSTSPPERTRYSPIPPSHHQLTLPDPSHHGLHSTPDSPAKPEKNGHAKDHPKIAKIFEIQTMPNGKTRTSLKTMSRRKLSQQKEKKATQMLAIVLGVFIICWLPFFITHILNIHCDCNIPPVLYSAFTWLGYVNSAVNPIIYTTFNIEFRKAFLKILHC
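Agonist mode: compounds alone added to overnight-plated D2 PathHunter cells for 90 min at 37 C, with 57 uM final dopamine (EC100) defining full response. Beta-arrestin recruitment detected by chemiluminescent reagent, read after 1 h at ambient temperature.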
PINK1 expr mod = PINK1 expression modulation | PINK1 immunofluorescence, high-content cytometry, 24 h | Potency, µM (doses to about 76.6 µM), for inactives: top-dose activation (PINK1 increase), hits mostly activators | hit rate 0.2% among 410,000 | AID 624263; active = well fitted activation curve with a large enough effect; inconclusive = small, poorly fitted or top-dose-only effect; inactive = flat fitted curve, though single readings scatter; cell line not stated here;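 also: potency is read from the fitted curve at half-maximal effect; % of control where 0% means no effect; nearly all actives have a fitted effect of over 65% in size; a mitochondrial uncoupler was the plate control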
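A stable cell line was treated with compounds at 5 concentrations for 24 hours, with CCCP as control. PINK1 levels and mitochondrial localization were measured by immunofluorescence with mitochondrial, cell and nuclear markers after fixation, read by laser-scanning cytometry.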
Sfp inh = Sfp phosphopantetheinyl transferase inhibition | hit rate 3.5% among 310,000 | Biochemical Sfp PPTase activity, qHTS | Q9F4F7 | Potency, µM, inactives show max response, negative = inhibition, most hits filed as inhibitors; active = well fitted inhibition curve with a large enough effect; inconclusive = small, poorly fitted or top-dose-only effect, or another doubt; inactive = no such curve, though single readings can be large or run the other way;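 also: the enzyme is Sfp with the accession as filed and its product quenches rhodamine fluorescence; potency is read from the fitted curve at half-maximal effect; 0% = enzyme reaction without inhibitor and -100% = no enzyme wells; top concentration of the series not given in the record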
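Fluorescence-quenching assay with 15 nM Sfp, 5 uM rhodamine-CoA and 12.5 uM BHQ-2-labelled ybbR peptide in pH 7.6 Hepes/MgCl2 buffer. Enzyme was pre-incubated with compound for 15 min at room temperature. Rate was taken from the 30-min fluorescence change (525/598 nm).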
Menin MLL FP FL = inhibitors of human menin-MLL interaction, wild-type MLL peptide | Fluorescence polarization, fluorescein-MLL peptide displacement from menin | FP activity change, % at 61.4 µM | 290,000 tested, under 10 active; inconclusive = falling polarisation curve, or a change in total fluorescence; inactive = total fluorescence flat and polarisation flat or rising; no compound was filed as active; the % refers to the polarisation; negative = inhibition;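 also: % of control where 0% means no effect; inhibitors lower the polarisation; unlabelled MLL peptide was the positive control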
ClpP mod = qHTS Assay for Activators of ClpP. ATP-dependent Clp protease proteolytic subunit (Bacillus subtilis (strain 168)), P80244. purified B. subtilis ClpP, FRET peptide cleavage, 20 min. Potency, µM (highest dose often 57.5 µM), without a hit: top-dose activity change, negative = active. hit rate 1.9% among 340,000. AID 651965, 2013; active = well fitted falling curve with a large enough effect; inconclusive = small, poorly fitted or top-dose-only effect; inactive = no such curve, though single readings can be large or run the other way; also: potency is read from the fitted curve at half-maximal effect; the source files actives as falling curves though it sought activators and does not explain the sign; nearly all actives have a fitted effect of over 65% in size; many hits overshoot -100%
Target sequence (P80244 whole entry, looked up): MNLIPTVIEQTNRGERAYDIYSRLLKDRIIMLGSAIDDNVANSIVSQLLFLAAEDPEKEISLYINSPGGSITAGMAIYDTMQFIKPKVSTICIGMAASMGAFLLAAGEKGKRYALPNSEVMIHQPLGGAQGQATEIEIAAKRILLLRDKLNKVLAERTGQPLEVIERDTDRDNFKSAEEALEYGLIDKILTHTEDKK
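FRET quenching reversal measured ClpP activation: 10 microg/mL B. subtilis ClpP at pH 8 with the FRET-FV decapeptide, read at 430 nm after 320 nm excitation. The 20-min minus 0-min signal was scaled between DMSO/no-enzyme wells and ADEP (5.8 microM final).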
gsp antag = gsp mutant antagonism; hit rate 0.4% among 340,000; AID 624288; Potency, µM (titrated, usually from 76.9 µM), inactives show at the top dose activity change, negative = inhibition, most hits filed as inhibitors; gsp-mutant cells, cAMP HTRF, 30 min; control for the full effect not named in the record; active = falling curve of any shape with a large fitted effect; inconclusive = falling curve, mostly with a smaller effect; inactive = flat or rising curve; cell line not stated here;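 also: intracellular cAMP measured with PDE inhibitor Ro 20-1724 present during compound exposure; potency is read from the fitted curve at half-maximal effect; % is scaled to controls: 0 for no effect and ±100 for the full control effect; nearly all actives have a fitted effect of over 65% in size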
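HTRF cAMP read-out (cAMP-d2 plus anti-cAMP antibody-K in lysis buffer, 30 min RT). Before lysis, cells are exposed to compounds with […] for 30 min at 37C in DPBS containing Ca/Mg, BSA and Tween 20.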
Starred values were filed as active, the others as inactive; ? = inconclusive; . = no result given; & = joins results of further samples; [ ] = another dose, or the depositor's remark.

SMILES | gsp ag | D2 agonist | PINK1 expr mod | Sfp inh | Menin MLL FP FL | ClpP mod | gsp antag
Cc1c(NC(=O)Nc2ccc(F)cc2F)c(=O)n(-c2ccccc2)n1C | 13% | 2.9 | -0.1% | -16% | . | -1.5% | 6%
CC(=O)C1=C(O)C(=O)N(CO)C1c1ccccc1F (stereo unspecified) | ? | -2.0 | . | 4% | 4.3 | -0.1% | 4%
COc1cc(S(=O)(=O)N2CCN(C(=O)c3ccco3)CC2)ccc1Cl | 7% | -2.5 | 2.9% | 8% | -5.1 | -0.3% | -4%
CCOC(=O)c1c(-c2cccs2)csc1N | 6%[15.4 µM] | 0.5 | 2.9% | -21% | -0.8 | . | 0%
CCOC(=O)C1CCN(C(=O)COC(=O)CNC(=O)c2ccc(C(C)(C)C)cc2)CC1 | -1%[15.4 µM] | -0.9 | -2.0% | . | . | 0.3% | -9%
N#Cc1c(Oc2ccc3ccccc3c2)sc(C(=O)c2ccccc2)c1N | -1% | -3.4 | 1.8% | 7% | 2.8 | -25% | -24%
CN(C)S(=O)(=O)N1CCN(CC(=O)Nc2cc(Cl)ccc2Cl)CC1 | -60%[inhibitor] | -1.0 | -2.7%[38.3 µM] | -6% | 2.2 | -1.3% | -10%
CC(Nc1cccc2ccccc12)C(=O)N/N=C/c1ccccn1 (stereo unspecified) | -18% | 2.7 | -3.2%[38.3 µM] | -1% | ? | -1.6% | 0%
CNC(=S)N(Cc1ccco1)Cc1cc2cc(OC)c(OC)cc2[nH]c1=O | -3%[15.4 µM] | -6.5 | -0.1% | ? | 5.3 | . | 6.3µM*
Cn1ncc2c(Nc3ccccc3Br)ncnc21 | ? | 0.1 | 0.1% | 9% | 4.2 | -2.3% | 13%[15.4 µM]
CCOC(=O)C1CCN(C(=O)Cn2c(=O)c3cccn3c3cccnc32)CC1 | ? | 4.5 | -1.9% | 12% | 1.7 | 3.8% | -4%
CN(c1ncc(C(F)(F)F)cc1Cl)n1cc(C(=O)O)c2ccccc2c1=O | 0% | -4.8 | 2.6% | 12% | -0.8 | -3.1% | -29%
Cc1noc(C)c1CS(=O)(=O)Cc1ccc(Cl)cc1 | -16% | 3.6 | 0.8% | 22% | -3.4 | . | 1%
O=C1C=CCC(/C=C/c2ccccc2)O1 (stereo unspecified) | . | -3.7 | -2.2% | 8% | 1.2 | -0.2% | 0%
CCC(c1nnnn1-c1c(C)cccc1C)N1CCN(C/C=C/c2ccccc2)CC1 (stereo unspecified) | . | 10 | 17% | . | . | -1.4% | .
CC(C)(C)NC(=O)C(OC(=O)c1cccs1)c1ccc(C#N)cc1 (stereo unspecified) | -54%[inhibitor] | -1.5 | -1.5% | 3% | 5.9 | 0.2% | 1%
CCOc1ccc(NC(=O)N2CCN(Cc3ccc4c(c3)OCO4)CC2)cc1 | 23% | -5.7 | -1.7% | 16% | -2.2 | -0.3% | 9%
COc1ccc(C2c3[nH]c4ccccc4c3C[C@H]3C(=O)N(c4ccccc4C(=O)NCCN4CCOCC4)C(=O)N23)cc1 (stereo partly specified) | . | -3.4 | 3.7% | -7% | -9.4 | -0.1% | -11%
CCOC(=O)c1cnn(-c2nc(SC)nc3sc4c(c23)CCC4)c1N | 4% | -1.9 | -0.6% | 2% | 2.7 | -7.0% | -7%[15.4 µM]
CC(=O)Nc1ccc(S(=O)(=O)c2c(N)n(CCN3CCOCC3)c3nc4ccccc4nc23)cc1 | -52% | -0.3 | 6.4% | -14% | -2.0 | 32µM* | -5%
O=C(NC(=S)Nc1ccccc1N1CCCCC1)c1ccc(-c2cccc([N+](=O)[O-])c2)o1 | 0% | -1.8 | 0.1% | 7% | -1.7 | 0.5% | 3%
COc1ccc(CCc2nnc(CCC(=O)NCc3cc(C(C)C)no3)o2)cc1 | -40%[inhibitor] | -1.3 | -1.0% | 20% | -1.7 | . | 6%
O=C(CSCC(=O)NC1CC1)Nc1ccc2ccccc2c1 | ? | -0.3 | 2.7% | 18% | 3.8 | -0.3% | -8%
CCOC(=O)CC1C(=O)NCCN1S(=O)(=O)c1cccc(C(F)(F)F)c1 (stereo unspecified) | ? | -3.8 | -2.6% | 23% | . | 0.3% | -3%
CCOC(=O)c1cc2sccc2n1CC(=O)OC(C)C | -54%[inhibitor] | -1.8 | 3.8%[38.3 µM] | 8% | -1.5 | -0.4% | -7%
SMILES | gsp ag | D2 agonist | PINK1 expr mod | Sfp inh | Menin MLL FP FL | ClpP mod | gsp antag
Cc1ccc(C(NC(=O)C2CCN(CCOc3ccc(Cl)cc3)CC2)c2ccccn2)cc1 (stereo unspecified) | . | -1.8 | 1.9% | . | . | 3.0% | .
COc1ccc(OC)c(Nc2nnc(C)c(=O)[nH]2)c1 | -28% | -2.6 | 0.3% | -1% | 0.3 | . | -1%
CCN(CC)c1ccc(N2C(=O)C3CCCCC3C2=O)cc1[N+](=O)[O-] (stereo unspecified) | 13% | -0.2 | -1.0% | -2% | 0.3 | -2.1% | 2%
CC(=O)Nc1ccc(NCc2cccs2)cc1 | -68%[inhibitor] | 0.4 | 1.8% | 3% | 4.0 | . | 0%
COc1ccccc1N1CCN(C2CCCN(C(=O)c3csc(C)n3)C2)CC1 (stereo unspecified) | 2% | -6.1 | -0.7% | 8% | . | -2.3% | 3%
Cc1ccc(C)c(S(=O)(=O)Nc2ccc(C(=O)N3CCCCC3)cc2)c1 | 4%[15.4 µM] | -1.0 | 0.7% | 16% | . | -5.2% | 2%
COc1cc2cc(CCCOC(=O)c3ccc4c(c3)OCO4)oc(=O)c2cc1OC | . | 2.4 | 0.6% | . | . | -12% | -9%
COCC(=O)N1CCC2(CC1)CN(c1cccc(-c3ccccc3)c1)C2 | . | . | 6.4% | 8% | -0.8 | . | .
CC1CCC(NC(=O)c2cccc(S(=O)(=O)N3CCN(c4ccccc4)CC3)c2)CC1 (stereo unspecified) | 2%[15.4 µM] | 0.5 | 15% | . | . | . | 4%
Cc1cc(C)nc(NC(=O)Nc2ccccc2C(F)(F)F)n1 | 7% | -3.0 | -0.1%[38.3 µM] | -8% | 0.9 | 0.6% | 4%
CCc1nnc(NS(=O)(=O)c2ccc(NC(=O)c3cc(Cl)ccc3[N+](=O)[O-])cc2)s1 | 5% | 5.6 | -0.4% | 20% | -0.2 | -1.5% | 2%
O=C(NCCCn1ccnc1)c1ccncc1 | 5% | -3.2 | 4.4%[38.3 µM] | 4% | -0.5 | -2.8% | 6%
COCCn1c(CN(C)Cc2ccccc2)nc2c1c(=O)n(C)c(=O)n2C | ? | 7.5 | -0.3% | 22% | -0.9 | -7.5% | -10%
CC(C)(C)C1CCC2(CC1)CC(=O)c1ccccc1O2 (stereo unspecified) | ? | -3.3 | ? | -6% | -0.2 | -19% | 10%
O=C1c2nc3cc(-c4ccco4)[nH]n3c(=O)c2CN1Cc1ccccc1 | -17%[15.4 µM] | -1.9 | -2.3% | 20µM* | 11 | 2.3% | -3%
COC(=O)c1cc(C(C)=O)c(C)[nH]c1=O | -20% | -0.3 | 4.7% | 13% | -2.0 | . | 2%
Nc1c2c3c(sc2nc(=O)n1N)CCCC3 | 26% | -5.7 | 0.3% | -7% | -1.8 | 3.7% | -16%
CC(C)(C)SCCNC(=O)CN(c1ccc(F)cc1)S(=O)(=O)c1ccccc1 | -15% | 4.0 | 10% | 11% | -4.6 | . | 1%
O=C(NN=C(Cc1ccccc1)Cc1ccccc1)c1ccncc1 | -1% | -6.4 | -0.3% | -24% | 1.3 | 0.2% | 10%
O=C(CCS(=O)(=O)c1ccc(Br)cc1)Nc1ccc(Cl)cc1F | -28% | -3.8 | 6.6% | 0% | 4.6 | 0.5% | -3%
CCCCCC(=O)NC(=S)NNC(=O)CC | 17% | 0.8 | -0.1%[38.3 µM] | ? | 4.0 | 0.2% | 7%
N#Cc1c(N)n(Cc2ccccc2)c(=O)c2cc([N+](=O)[O-])ccc12 | 2%[15.4 µM] | -4.7 | 6.9% | 7% | ? | 0.2% | ?
CCC1(CC)NC(=O)N(CC(=O)Nc2sc3c(c2C(N)=O)CCC3)C1=O | -11%[15.4 µM] | -4.7 | -0.3% | -15% | 18 | 0.7% | 6%
N#Cc1ccccc1OCC(=O)NNC(=O)CNC(=O)c1ccc(Br)o1 | 7%[15.4 µM] | -0.6 | -1.0% | . | . | 1.0% | 6%
COc1cccc(N2CCc3c(C)nc4ccc(Cl)cc4c32)c1 | -5%[15.4 µM] | -2.9 | ? | -6% | -2.9 | -0.4% | 11%
SMILES | gsp ag | D2 agonist | PINK1 expr mod | Sfp inh | Menin MLL FP FL | ClpP mod | gsp antag
N/C(=N\OC(=O)CC1CCCCC1)c1cccnc1 | -31%[inhibitor] | 0.3 | 5.2%[38.3 µM] | 19% | 5.7 | 0.6% | 13%
CC(=O)Nc1cccc(NS(=O)(=O)c2ccccc2[N+](=O)[O-])c1 | 14% | -2.5 | 3.8% | 4% | 1.5 | . | 7%
C/C(CC(=O)Nc1ccc(F)cc1)=N\NC(=O)Cc1csc(N)n1 | -45%[inhibitor] | 0.5 | -0.2% | 10% | -1.1 | ? | -2%
CCOc1ccc(N2CC(C(=O)NCCc3c[nH]c4ccc(C)cc34)CC2=O)cc1 (stereo unspecified) | 16%[15.4 µM] | 0.7 | 5.2% | 13% | -1.4 | -0.5% | -14%
Cc1ccc(N(CC(=O)N/N=C/c2cc(C)n(-c3ccccc3)c2C)S(C)(=O)=O)c(C)c1 | 0% | 2.9 | -3.2% | 8% | 3.2 | -6.5% | 4%
COCCn1c(=O)c(CCc2ccccc2)nc2cnc(N3CCOCC3)nc21 | . | . | -0.1% | ? | 4.8 | . | .
CCSC(=N)N | . | -3.9 | 0.2% | -1%&-1% | 2.9&2.1&-15 | 0.9% | -7%
COc1cccc(/C=N/NC(=O)CNC(=O)C2COc3ccccc3O2)c1O (stereo unspecified) | 23% | 1.7 | -1.6% | 10% | 0.5 | -11% | -7%
N#C/C(=N/Nc1ccc(OC(F)(F)F)cc1)C(N)=S | -8% | -20 | 14µM* | ? | 1.9 | 0.2% | ?
CCN(CCCNC(=O)COc1cc(=O)n(C)c2ccccc12)c1ccccc1 | 22% | 0.0 | . | -17% | 1.9 | -2.7% | -9%
